Source: PubChem
eIF4H inh – human eIF4H binding inhibitors, primary screen, translation initiation inhibitor project, biochemical, uHTS, fluorescence polarization | Eukaryotic translation initiation factor 4H (Homo sapiens), Q15056 | eIF4H fluorescence polarization binding assay | inhibition, % at 35 µM | hit rate 0.94% among 290,000;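 active = 50% or more with normal probe brightness, or confirmed in later tests; inconclusive = above 50% with abnormal brightness, or retests that disagree; inactive = below 50% or failed in later tests; about a fifth of its hits are not listed in these tables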;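 also: calls also rest on retests at 20 µM and on dose response follow-up; 0% = protein and probe with vehicle and 100% = probe without protein; strong numbers were not always called active; many hits fall short of the cut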
Yeast UUG start – modulators of yeast start codon fidelity, primary screen, whole organism, S. cerevisiae, single point, plate reader. S. cerevisiae UUG-firefly luciferase reporter, luminescence/redox ratio. activity score, % at 18.7 µM. hit rate 0.13% among 350,000;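 active = replicate mean at a twofold rise or more, about +100% in these data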;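 also: firefly luciferase made from a UUG start codon reports start codon fidelity; reporter light over untreated wells divided by growth signal over untreated wells; some hits fall short of that in this replicate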
CSC inhib – cancer stem cell viability inhibitors, primary screen, luminescence. inhibition, % at 7.5 µM. cancer stem cell-like cells viability. hit rate 1.1% among 300,000;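 active = mean at 75% or more and at least half the replicates too; inconclusive = mean and replicates disagree; tested in HMLE shEcad cells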;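 also: 0% = median of negative and 100% = median of positive control wells; the first replicate is given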
Env fusion inh – inhibitors of HIV-1 Env-driven cell-cell fusion, primary screen, HeLa-JRFL effector, CEM21 target cells, luciferase | inhibition, % at 12.3 µM | hit rate 1.1% among 360,000;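 active = mean replicate inhibition score of at least 50 and every replicate individually at or above 50; inconclusive = only one of the two criteria met; inactive = mean below 50 and not all replicates reaching 50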;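 also: 0% = plate neutral controls and 100% = maraviroc near 300 nM; one replicate is shown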
Rce1 inhib – yeast Rce1p protease inhibitors, primary screen, biochemical, fluorescence, cell-free homogeneous | yeast membranes, quenched prenylated peptide cleavage fluorescence | calls only | hit rate 0.27% among 290,000;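 active = fall in fluorescence gain of 50% or more versus controls, with final raw signal at or below 3038400; inconclusive = same 50% fall but final raw signal above 3038400; inactive = fall in fluorescence gain under 50%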;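 also: plate controls were neutral control wells for no effect and wells lacking membranes for full effect; tested at 10 µM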
MT1-MMP act inh – blockers of MT1-MMP proenzyme processing, primary screen, HT1080 RFP-PRO-GFP cells, GFP/RFP fluorescence; GFP/RFP ratio fluorescence, overnight; percent of plate control window, DMSO zero; GFP/RFP ratio change, % at 20 µM; hit rate 0.061% among 360,000;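 active = GFP/RFP ratio change of at least 30% with cell ATP level not reduced by more than half and red fluorescence within 50% of control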; also: strong numbers were not always called active
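Test system: HT1080 RFP-PRO-GFP cells; Benchmarks: DMSO and RFP-L50D-GFP cell wells; Timing: cells overnight before dosing, compound overnight, 37 °C, 5% CO2; Compound: one 20 µM compound dose with 1% DMSO; Read-out: GFP/RFP fluorescence ratio.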
PABP FP inh – PABP poly(A) RNA binding inhibitors, primary screen, biochemical, fluorescence polarization, uHTS; hit rate 1% among 290,000; AID 2014, 2009; Polyadenylate-binding protein 1 (Homo sapiens), P11940; inhibition, % at 35 µM;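 active = 50% or more with normal probe brightness, or confirmed in later tests; inconclusive = above 50% with abnormal brightness, or retests that disagree; inactive = below 50% or failed in later tests; about a fifth of its hits are not listed in these tables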;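 also: calls also rest on retests at 20 µM and on dose response follow-up; controls were probe without protein and protein plus probe with vehicle; some compounds called inactive have numbers as strong as hits; many hits fall short of the cut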
Target sequence (P11940 whole entry, looked up): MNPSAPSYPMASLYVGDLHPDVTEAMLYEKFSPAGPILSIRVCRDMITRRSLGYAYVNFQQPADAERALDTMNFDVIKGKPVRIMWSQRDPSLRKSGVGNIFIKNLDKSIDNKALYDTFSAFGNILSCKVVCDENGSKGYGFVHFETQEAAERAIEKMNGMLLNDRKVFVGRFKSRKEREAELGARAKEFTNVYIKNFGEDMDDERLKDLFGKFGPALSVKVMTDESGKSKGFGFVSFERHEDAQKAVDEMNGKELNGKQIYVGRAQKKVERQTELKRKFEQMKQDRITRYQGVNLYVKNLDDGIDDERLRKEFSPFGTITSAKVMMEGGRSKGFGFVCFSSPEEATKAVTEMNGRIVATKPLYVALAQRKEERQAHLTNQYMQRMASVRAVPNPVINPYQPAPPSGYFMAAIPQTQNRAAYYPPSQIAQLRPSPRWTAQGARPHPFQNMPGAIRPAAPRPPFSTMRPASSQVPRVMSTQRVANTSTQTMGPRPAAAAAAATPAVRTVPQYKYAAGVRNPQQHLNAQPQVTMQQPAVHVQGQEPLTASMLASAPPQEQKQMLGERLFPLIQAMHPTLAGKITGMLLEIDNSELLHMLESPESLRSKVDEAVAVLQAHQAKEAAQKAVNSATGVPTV
eIF4H inh retest – second read-out of eIF4H inh, no call of its own (marks repeat the call); inhibition, %; compound at 20 µM; confirmation average;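 mean of two retest wells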
PABP FP inh retest – further read-out of PABP FP inh, marked with its call; inhibition, %; compound at 20 µM; confirmation repeats;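 mean of two retest wells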
MT1-MMP act inh RFP – second read-out of MT1-MMP act inh, no call of its own (marks repeat the call); RFP signal change, %; measured here: RFP expression control read;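 0 = vehicle wells; hits needed this value within 50% of zero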
The depositor's hits bear a star; i = inactive; ? = inconclusive; nt = no result given. An excerpt. The share of hits here may be higher or lower than overall.

The opening three entries as a preview:
SMILES | eIF4H inh | Yeast UUG start | CSC inhib | Env fusion inh | Rce1 inhib | MT1-MMP act inh | MT1-MMP act inh RFP | PABP FP inh | others
COc1ccc(S(=O)(=O)n2nc(OC(=O)c3ccco3)cc2N)cc1 | -6 | -5 | nt | -16 | i | 5 | 5 | 0
CC1CCN(C(=O)c2ccc(N(C)S(C)(=O)=O)cc2)CC1 | -11 | -1 | -4 | nt | i | 3 | 4 | -4
O=C(O)c1cccc(NC(=O)c2ccc3c(c2)C(=O)N(Cc2ccco2)C3=O)c1 | 62* | -52 | -8 | 8 | i | -2 | 3 | 49 | eIF4H inh retest=76*;PABP FP inh retest=39

The whole of this part, previewed entries included:
SMILES | eIF4H inh | Yeast UUG start | CSC inhib | Env fusion inh | Rce1 inhib | MT1-MMP act inh | MT1-MMP act inh RFP | PABP FP inh | others
COc1ccc(S(=O)(=O)n2nc(OC(=O)c3ccco3)cc2N)cc1 | -6 | -5 | nt | -16 | i | 5 | 5 | 0
CC1CCN(C(=O)c2ccc(N(C)S(C)(=O)=O)cc2)CC1 | -11 | -1 | -4 | nt | i | 3 | 4 | -4
O=C(O)c1cccc(NC(=O)c2ccc3c(c2)C(=O)N(Cc2ccco2)C3=O)c1 | 62* | -52 | -8 | 8 | i | -2 | 3 | 49 | eIF4H inh retest=76*;PABP FP inh retest=39
COc1cccc(Nc2ncnc3nc[nH]c23)c1 | -9 | -29 | -5 | 1 | i | -5 | -1 | 0
CSc1ccccc1NC(=O)Cn1nc([N+](=O)[O-])cc1C | 2 | nt | -12 | 9 | i | -3 | 0 | 10
O=C(NNC(=S)NC(=O)c1ccco1)c1ccc(F)cc1 | -1 | nt | 20 | 0 | i | 9 | 1 | 9
O=C1NC(Cc2c[nH]c3ccccc23)C(=O)N1c1ccc(F)cc1 (stereo not drawn) | -10 | -6 | 1 | -63 | i | 2 | 2 | -3
O=c1c2sccc2nc(SCc2cc(=O)n3cc(Br)ccc3n2)n1Cc1ccccn1 | 2 | nt | -9 | -44 | i | 0 | 3 | 44
O=C(Nc1ccc(N2CCOCC2)nc1)c1c(F)cccc1F | 47 | -16 | -3 | 6 | i | -1 | 4 | 22
Cc1cc(Cl)c(S(=O)(=O)Nc2cc(S(=O)(=O)N3CCOCC3)ccc2F)cc1OCC(N)=O | -1 | nt | -2 | 11 | i | -1 | 0 | 9
Cc1ccc(C(=O)N2CCCC2)c(F)c1F | 2 | nt | -3 | -9 | i | 2 | 1 | -3
O=C(NCCCn1ccnc1)c1cc2c(s1)CCCCC2 | -8 | nt | 2 | nt | i | 5 | 1 | -4
COc1nc(C)nc2c1sc(=S)n2C | -10 | -15 | -8 | -143 | i | -13 | -10 | 0
CCn1cc(/C=C(\NC(=O)c2ccc(OC)c(OC)c2)C(=O)NCCN2CCOCC2)c2ccccc21 | -13 | nt | -7 | -1 | i | -2 | 2 | -5
CN(C)c1ccc(NC(=O)c2cnsn2)cc1 | -5 | -61 | nt | 28 | i | 4 | 0 | 5
O=C(NCc1ccccc1)c1ccc(-c2ccccc2F)o1 | 2 | 6 | 33 | nt | i | -3 | -3 | 65 | eIF4H inh retest=-8;PABP FP inh retest=-6
COc1cccc(C(=O)OCC(=O)Nc2ccccc2N2CCOCC2)c1 | 7 | 4 | nt | 1 | i | 0 | 5 | -2
COC1=C/C(=C/c2c(N)n3nc(CC(=O)N4CCCCC4)sc3nc2=O)C=CC1=O | 5 | -15 | -2 | nt | i | -70 | 4 | 8
CCN1CC2([N+](=O)[O-])CC=C(OC)C([N+](=O)[O-])(C1)C2 (stereo not drawn) | 1 | nt | -12 | -3 | i | 2 | 1 | -16
COc1ccc(OC)c(NC(=O)C2(C)CCN2Cc2ccccc2OC(F)F)c1 (stereo not drawn) | nt | 2 | nt | 18 | nt | -3 | -14 | nt
COC(=O)C1=C(C)NC(=O)/C1=C/c1ccc(CNS(=O)(=O)c2ccc(C)cc2)o1 | 30 | nt | 4 | 4 | nt | -5 | -5 | 12
COc1cccc(-c2nc(CCl)cs2)c1 | 5 | -12 | -4 | -11 | i | 6 | 3 | 5
Cc1cc2c3c(c1)C(C)(c1ccccc1)CC(C)(C)N3C(=O)C21C(C#N)=C(N)OC2=C1C(=O)CC(C)(C)C2 (stereo not drawn) | -8 | -4 | nt | 13 | i | -8 | -8 | -1
CN1C(=S)SC(/[N+]([O-])=C\c2cccs2)C1(C)C (stereo not drawn) | -6 | -24 | -4 | nt | i | 10 | 13 | -3
CCn1c(CN2CCN(c3cccc(C)c3C)CC2)n[nH]c1=S | 5 | nt | -17 | 0 | i | 3 | -4 | 9
COc1cccc(OC)c1NC(=O)c1ccc(-c2cc(Cl)ccc2Cl)o1 | nt | 1 | nt | -1 | nt | -4 | 0 | nt
Cc1cc(=O)oc2cc(OCC(O)CN3CCN(c4ccccc4)CC3)ccc12 (stereo not drawn) | -1 | -6 | 2 | nt | i | nt | nt | 3
Cc1ccc(C(=O)Nc2c(-c3cccs3)nc3cc(C)ccn23)cc1 | -8 | -20 | -14 | 15 | i | -5 | 8 | -4
Cc1nc2sc(C(=O)Nc3ccccc3)c(N)c2c(C)c1[N+](=O)[O-] | 5 | nt | -3 | -80 | i | -2 | 1 | -3
CC(=O)Nc1cccc(NC(=O)c2ccc3c(c2)CCN3S(C)(=O)=O)c1 | -4 | -8 | -1 | -2 | i | 1 | 1 | 6
O=C(CSc1nc(=O)n2ccccc2n1)OCc1ccccc1 | nt | 7 | -14 | 1 | i | -7 | -2 | nt
CN(C)S(=O)(=O)c1ccc(Nc2nc(C3CC3)nc3c2nnn3Cc2ccccc2Cl)cc1 | -13 | nt | nt | 48* | i | -9 | -30 | -4
CCOC(=O)C1(Cc2cccc(OC)c2)CCCN(Cc2cc(OC)c(O)c(OC)c2)C1 (stereo not drawn) | -2 | -45 | -13 | -46 | i | -2 | 6 | 3
COC(=O)c1ccc(NC(=O)C(=O)N2CCN(C(=S)Nc3ccccc3OC)CC2)cc1 | 10 | -27 | 6 | 9 | i | 2 | 1 | 0
CC1CCN(c2c(NCC3CCC(C(=O)NCCc4ccccc4)CC3)c(=O)c2=O)CC1 (stereo not drawn) | 4 | -23 | -12 | 14 | i | 3 | 2 | -3
Fc1cccc(-c2cc3nc4c(c(N5CCC6(CC5)OCCO6)n3n2)CCCC4)c1 | -8 | nt | nt | nt | i | -15 | -21 | -1
O=C(Nc1ccc2sc3ccccc3c(=O)c2c1)c1ccccc1Cl | 2 | -8 | 14 | nt | i | 0 | -5 | 7
Cc1ccc2nc(NC(=O)c3ccccc3F)sc2c1 | -11 | -21 | 15 | -315 | i | 3 | -3 | -16
CCc1ccc(NC(=O)Nc2ccc3c(c2)CCC3)cc1 | -5 | -11 | 4 | -97 | i | -1 | -1 | -2
COC(=O)c1ccc(CSc2ncn[nH]2)o1 | -6 | -10 | -2 | i | i | -6 | 6 | -6
CC(C)N=C1NN=C(c2ccc(Cl)c(Cl)c2)CS1 | -5 | nt | nt | -123 | i | -4 | -4 | 76 | eIF4H inh retest=3;PABP FP inh retest=1
N#CCSc1nnc(-c2ccccc2)c(-c2ccccc2)n1 | 2 | -40 | -1 | nt | i | 1 | 0 | -5
COCCNC(=O)/C(C#N)=C/C(C)=C/c1ccccc1 | 3 | nt | 3 | 10 | ? | -1 | 0 | -1
Cc1cc(C)cc(N2C(=O)C3CCCN3C2=S)c1 (stereo not drawn) | -2 | -13 | -9 | -19 | i | 0 | 2 | 8
c1ccc(Oc2cc(-c3ccccc3)ncn2)cc1 | -8 | -1 | -11 | nt | i | 5 | 3 | 0
Cc1ccc(S(=O)(=O)NCCS(=O)(=O)N2CCN(c3ccc(F)cc3)CC2)cc1 | nt | -20 | -10 | -17 | i | 4 | 1 | nt
CC(=NCc1ccccc1)c1ccc(O)cc1O | nt | -17 | nt | 5 | nt | 0 | 1 | nt
Cc1ccsc1C(=O)OCC(=O)N(C)c1c(N)n(Cc2ccccc2)c(=O)[nH]c1=O | nt | -15 | 4 | 0 | nt | -1 | -1 | nt
COc1ccc(CCNc2ncnc3sccc23)cc1OC | -2 | nt | 2 | 13 | i | -6 | -31 | -16
OCCN1CCN(CC(O)COc2ccc3c(c2)OCO3)CC1 (stereo not drawn) | -3 | -21 | -5 | nt | i | 4 | 7 | -7
COc1cccc(CNC(=O)C2CC(=O)N(C3CCCCCCC3)C2)c1 (stereo not drawn) | nt | 10 | -6 | 8 | i | -2 | -1 | nt
Cc1cccc(NC(=S)N(C)Cc2cn(C)c3ccccc23)c1 | -4 | -18 | -12 | nt | i | 0 | 10 | 37
Cn1c(=O)c(C(=O)CN2CCN(Cc3ccc4c(c3)OCO4)CC2)c(N)n(Cc2ccccc2)c1=O | -5 | nt | -1 | 12 | nt | -1 | -7 | -6
COC(=O)c1cncc(O)c1 | 11 | -14 | -5 | nt | i | 1 | 4 | 6
CCSc1ncc(Cl)c(C(=O)Nc2ccccc2)n1 | -5 | nt | 9 | nt | i | 3 | 0 | 6
CCc1ccc(NS(=O)(=O)c2cccc3nsnc23)cc1 | -18 | -12 | -4 | 14 | i | -1 | -3 | -3
Cc1cc(NC(=O)COC(=O)C(Nc2ccc(C(F)(F)F)cc2Cl)C(C)C)no1 (stereo not drawn) | -5 | -23 | 55 | 20 | i | -8 | -15 | -5
CCCCc1c(C)c2ccc(OCC(C)=O)cc2oc1=O | 4 | -8 | -10 | nt | nt | 4 | 2 | -3
COc1cc(SC)ccc1C(=O)N(Cc1ccccc1)c1ccccc1 | 3 | 2 | 4 | -2 | i | -1 | -2 | -6
Nc1c(Nc2ccccc2)c2ccccc2oc1=O | 8 | -6 | -16 | -16 | i | 3 | 2 | 7
(continued)
SMILES | eIF4H inh | Yeast UUG start | CSC inhib | Env fusion inh | Rce1 inhib | MT1-MMP act inh | MT1-MMP act inh RFP | PABP FP inh | others
COc1ccc(OC)c(NC(=O)c2cc(-c3cc(F)ccc3OCC3CCCO3)n[nH]2)c1 (stereo not drawn) | nt | -16 | nt | -17 | nt | 7 | -10 | nt
CN(Cc1cccc(F)c1)CC(O)COCc1ccccc1Cl (stereo not drawn) | 14 | -13 | -11 | 8 | nt | 3 | 3 | -8
CC1CCCCN1C(=O)CN1C(=O)c2ccccc2S1(=O)=O (stereo not drawn) | nt | -17 | 1 | -17 | i | 5 | 0 | nt
Cc1noc(C)c1COc1ccc(C(=O)OCc2nnc(-c3ccc(Cl)cc3)o2)cc1 | -2 | -14 | -9 | -9 | i | -2 | 0 | -2
COc1cccc(NC(=O)N(CCCN2CCOCC2)C(C)c2cc3cccc(OC)c3o2)c1 (stereo not drawn) | 2 | -4 | 14 | nt | i | 1 | 2 | 1
CN(CC(=O)NCc1ccccc1)Cc1cccc(F)c1 | -5 | -6 | -2 | -2 | i | 2 | 0 | -10
COc1ccc(N2CCC(CNC(=S)Nc3c(C)cccc3C)C2)cc1 (stereo not drawn) | 2 | -31 | 1 | -8 | i | -13 | 0 | -5
CC(C)=CCc1c2c(c3occ(-c4ccc(O)cc4)c(=O)c3c1O)C=CC(C)(C)O2 | 0 | -6 | -15 | nt | i | 0 | -9 | 16
O=C(CSc1n[nH]c(=O)n1-c1cccnc1)N1CCOCC1 | 0 | 2 | nt | -1 | i | nt | nt | 48
